Screening data: PubChem, several laboratories
Autofluor counter: counter-screen for toxin protease inhibitors: compound fluorescence; compound autofluorescence counterscreen, microsphere flow cytometry; hits give high values; fluorescence intensity (concentration not given with the values); 360,000 tested, 3.1% active; AID 624483;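 active = at least 3 SD above the mean of all compounds, about 16000 in these data; inconclusive = too few beads counted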;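 also: 100 nL of 1 mM stock went into each well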
ugtP null kill: growth inhibition of ugtP-null S. aureus, primary screen, RN4220 ugtP deletion, OD600; 16 h; some inactives read as strong as hits; growth inhibition, % (test concentration not listed); 330,000 tested, 0.54% active; AID 1259309, 2017;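 active = z-score under -3 and OD600 up to 0.15 on both plates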;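 also: plate controls were untreated wells for no effect and antibiotic for full effect; wells of about 80 µL received 100 nL stock; the first replicate is given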
BJeLR viability: MLPCN primary cell-based screen for lethality selective to Ras in HRASV12 cells; BJeLR (HRASV12) viability, CellTiter-Glo ATP luminescence, 48 h; reference of the scale not given here; 300,000 tested, 0.17% active; AID 1554, 2009; inhibition, % (test concentration not listed);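 active = replicate mean above 50%; inconclusive = above 50% but judged a plate artefact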;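 also: 50 nL library stock added to about 25 µL; numbers are from one replicate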
Mtb hypoxia inh: PubChem AID 1159583. M. tuberculosis hypoxia-regulated fluorescent reporter, fluorescence. fluorescence inhibition, % (test concentration not listed). 300,000 tested, 0.1% active;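 active = 35 to 45% if threefold the growth effect, above 45% if 1.5-fold the growth effect; inactive = the rest, general growth blockers included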;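 also: wells of about 50 µL received 100 nL stock; 0% = vehicle wells and 100% = reference inhibitor wells; whole bacteria with a GFP reporter of the hypoxia response; strong numbers were not always called active; many hits fall short of the cut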
PrP UTR inh: inhibition of PrP 5' UTR reporter expression; inhibition, % (test concentration not listed); cell-based PrP 5' UTR mRNA reporter, plate reader; AID 488862, 2010; 340,000 tested, 0.35% active;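 active = every replicate at 50% or more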;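 also: 0 = median of the neutral control wells; tested in H4 reporter cells; numbers are from one replicate; inactives centre near -14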
RN4220 kill: growth inhibition of S. aureus RN4220, primary screen, OD600. 16 h. inhibition, % (test concentration not listed). 330,000 tested, 0.33% active;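 active = z-score of -3 or lower and OD600 up to 0.18 on both plates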;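 also: plate controls were untreated cells for no effect and reference antibiotic for full effect; stock transfer was 100 nL into about 80 µL; one replicate is shown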
Mtb hypoxia inh growth: second read-out of Mtb hypoxia inh, no call of its own (marks repeat the call); growth inhibition, %; measured here: M. tuberculosis growth (absorbance);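 0% = vehicle and 100% = reference antibiotic; read after six days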
An asterisk follows results filed as active; ? = inconclusive; / = no result given; & = joins results of further samples.

SMILES	Autofluor counter	ugtP null kill	BJeLR viability	Mtb hypoxia inh	Mtb hypoxia inh growth	PrP UTR inh	RN4220 kill
COc1ccc(NC(=O)N(Cc2ccc(C)cc2)Cc2ccccn2)c(OC)c1	4342	4.2	10.6	5.1	7.1	-13.3	7.3
COc1ccc(C=NNc2cc(C)nc3ccccc23)cc1	/	-16.1	/	15.9	-1.5	/	2.9
CCN(CC)c1ccc(NC(=O)COC(=O)Cc2ccsc2)cc1	5127	7.0	/	5.4	-1.0	-13.7	3.7
CCOC(=O)CSc1nnc(Cn2nnc(-c3ccccc3)n2)n1C	5433	1.8	5.9	-2.3	-1.5	-32.4	4.7
COc1ccc(C(NC(=O)C2CCCCC2)c2c(O)ccc3ccccc23)cc1 (configuration not stated)	2097	12.8	0.6	7.4	10.7	-3.3	-6.9
Nc1ccc2nc(-c3ccccn3)[nH]c2c1	2723	-5.6	-3.2	/	/	-92.4	1.4
CC(=O)c1cc(-c2ccccc2)n(CC(=O)Nc2ccc(C)c(C)c2)c1C	2905	12.0	-4.7	4.0	8.4	-7.2	2.8
Cc1cccc(CNS(=O)(=O)c2ccc(-c3ccc(=O)[nH]n3)s2)c1	5233	4.2	-9.8	3.2	-0.4	-26.8	5.7
COc1cc2cc(CN(CCO)S(=O)(=O)c3ccccc3Cl)c(=O)[nH]c2cc1OC	16702*	10.8	10.9	6.9	2.6	-4.1	4.0
Nc1c(-c2ccccc2)nnn1Cc1ccccc1	5557	2.1	11.4	6.4	9.2	-39.1	4.8
O=C(CCC1CCCN(C(=O)c2ccc3cc[nH]c3c2)C1)NCc1ccc(F)c(F)c1 (configuration not stated)	3296	-4.2	3.5	12.5	9.4	-34.9	4.5
Cc1onc(-c2ccccc2)c1C(=O)NC(=S)NNC(=O)c1cccnc1	9266	3.3	-17.4	5.3	4.2	-35.8	19.5
CCCCC(=O)Nc1nnc(S(=O)(=O)N2CCCc3ccccc32)s1	5580	-10.8	2.6	6.1	-0.4	-21.4	6.2
CCOC(=O)C1CCCCN1Cc1cc(OC)ccc1OC (configuration not stated)	5036	2.1	7.6	6.3	11.2	-22.1	3.9
CSc1nc2c(cnn2-c2ccc(C)c(C)c2)c(=O)[nH]1	5820	1.0	-7.5	0.0	12.7	-12.9	6.6
O=C(Cc1ccccc1)NC1(Cc2ccc(O)cc2)CCCCC1	4766	0.5	4.5	-4.3	-0.3	-3.5	4.8
c1ccc2c(c1)[nH]c1c(NCC3CCCO3)ncnc12 (configuration not stated)	2616	-9.4	11.3	15.7	8.0	-4.7	-12.5
Cc1cc(C)cc(N(CC(=O)Nc2ccc(Br)cc2)S(=O)(=O)c2c(C)[nH]c(=O)[nH]c2=O)c1	6259	-0.4	-0.8	3.1	-2.1	-15.6	-3.0
CSc1ccc(S(=O)(=O)N2CCC(C(=O)N3CCOCC3)CC2)cc1	4902	8.8	-9.9	0.5	-1.8	3.6	1.3
Cc1nn(C2CCS(=O)(=O)C2)c(C)c1CN(C)C(=O)c1cccc(Cl)c1 (configuration not stated)	6552	9.9	/	3.8	1.0	6.1	6.3
COC(=O)NCc1ccc(Cl)c(Cl)c1	2388	/	0.2	/	/	-2.2	/
O=C(COc1ccccc1F)NC1CCN(Cc2ccccc2)CC1	20185*	3.2	10.6	-2.6	4.3	-15.8	3.4
CCN(CC)S(=O)(=O)c1cccc(C(=O)NN=Cc2ccccc2OCC(=O)O)c1	/	1.9	/	13.2	-4.9	/	3.0
COc1ccc(NC(=O)c2ccccc2NS(C)(=O)=O)cc1OC	2334	-0.7	-1.3	11.3	8.0	-14.5	-6.9
CN(C)C1(CNC(=O)c2ccc(Cl)c(S(=O)(=O)NCc3ccco3)c2)CCCCC1	8828	1.4	-8.9	6.5	8.9	-21.8	1.5

Some of the entries above in another layout.
> CCOC(=O)C1CCCCN1Cc1cc(OC)ccc1OC (configuration not stated)
- Autofluor counter = 5036
- ugtP null kill = 2.1
- BJeLR viability = 7.6
- Mtb hypoxia inh = 6.3
- Mtb hypoxia inh growth = 11.2
- PrP UTR inh = -22.1
- RN4220 kill = 3.9
> Cc1cccc(CNS(=O)(=O)c2ccc(-c3ccc(=O)[nH]n3)s2)c1
- Autofluor counter = 5233
- ugtP null kill = 4.2
- BJeLR viability = -9.8
- Mtb hypoxia inh = 3.2
- Mtb hypoxia inh growth = -0.4
- PrP UTR inh = -26.8
- RN4220 kill = 5.7
> c1ccc2c(c1)[nH]c1c(NCC3CCCO3)ncnc12 (configuration not stated)
- Autofluor counter = 2616
- ugtP null kill = -9.4
- BJeLR viability = 11.3
- Mtb hypoxia inh = 15.7
- Mtb hypoxia inh growth = 8.0
- PrP UTR inh = -4.7
- RN4220 kill = -12.5

The list goes on.
SMILES	Autofluor counter	ugtP null kill	BJeLR viability	Mtb hypoxia inh	Mtb hypoxia inh growth	PrP UTR inh	RN4220 kill
CCC1c2ccc(C)n2CCN1C(=O)Nc1ccc(F)cc1 (configuration not stated)	5737	/	1.6	/	/	-14.9	/
CC(=O)n1cc(C2C=C(C(=O)N3CCN(Cc4ccccc4)CC3)OC(OCc3ccc(CO)cc3)C2)c2ccccc21 (configuration not stated)	/	-3.4&-36.5	/	-10.4&8.6	0.3&9.9	/	-2.3&-0.6
CCOC(=O)c1ccc(NC(=O)c2nc[nH]c2C(=O)NCCCCCNC(=O)OC(C)(C)C)cc1	3703	-23.3	8.9	2.1	8.0	-13.6	3.2
CCN(CC)c1ccc(/C=C2\C(=O)NC(=O)N(CC3CCCO3)C2=O)cc1 (configuration not stated)	2941	11.4	1.4	10.4	6.4	-35.8	4.3
CCN(CC)CCNCC(=O)Nc1ccc(Oc2ccccc2)cc1	3426	4.7	3.6	-1.1	-10.7	-11.9	0.5
CN(C)CCCNC(=O)CC(c1ccccc1)c1ccccc1O (configuration not stated)	2770	-4.6	-4.4	/	/	70.9*	4.1
O=S(=O)(c1ccc(SCc2ccccc2)nc1)N1CCCC1	4001	9.4	/	3.9	6.2	-7.3	2.2
CCOC(=O)Nc1nnc(-c2ccc(OC)cc2)s1	7827	3.0	-6.2	5.3	7.9	-32.2	5.1
CCn1c(SCC(=O)NN=Cc2ccncc2)nc2ccccc21	/	4.6	/	1.2	-6.9	/	-0.1
CCC1=C(C(=O)OC)C(c2cc(OC)ccc2OC)C(C#N)=C(N)O1 (configuration not stated)	21452*	-4.0	-0.9	-5.0	-0.3	-11.4	0.1
Cc1nn(-c2ccccn2)c2c1-c1nc(N)ncc1CC2	3962	7.1	-5.4	/	/	-47.4	1.5
COc1ccc(-n2c(=S)[nH]c3c(oc4ccccc43)c2=O)cc1	2070	-9.9	-1.5	1.5	2.6	5.9	2.8
NC(=NOC(=O)Cc1ccc(-c2ccccc2)cc1)c1cccc([N+](=O)[O-])c1	/	10.9	/	6.5	4.0	/	5.3
O=C(Nc1cn(-c2ccccc2)nc1-c1cccs1)c1ccco1	5070	0.7	-4.2	/	/	-2.0	3.3
C=CCc1cccc(CNc2cnc3ccccc3c2)c1O	4430	-20.9	-9.0	-3.1	-7.9	-51.4	-0.9
COc1ccc(S(=O)(=O)NCC(=O)N(CC(=O)NCc2ccco2)Cc2ccccc2)cc1	4291	3.4	4.2	9.5	7.6	0.7	3.2
COc1ccc(-c2nc3n(n2)C(c2ccccc2Cl)C(C(N)=O)=C(C)N3)cc1 (configuration not stated)	5952	7.5	0.5	/	/	-13.1	-0.5
Cc1ccc(N2C(=O)C3CC3C2=O)cc1 (configuration not stated)	2047	-3.8	-2.2	-22.4	-16.7	-25.0	-0.9
COc1ccc(NC(=O)c2ccc([N+](=O)[O-])s2)c([N+](=O)[O-])c1	4481	-3.4	-1.0	8.0	17.3	-30.3	7.9
CCOCCCNC(=O)C(c1ccc(C)cc1)N(Cc1ccc2c(c1)OCO2)C(=O)c1ccccn1 (configuration not stated)	4455	6.1	/	7.7	8.0	-14.0	5.2
O=C1C2C3C=CC(CC3)C2C(=O)N1c1ccc([N+](=O)[O-])cc1 (configuration not stated)	4255	6.6	-3.5	11.5	4.2	-22.0	3.4
O=C(c1cccs1)N1CCN(S(=O)(=O)c2ccccc2)CC1	16321*	0.1	-0.7	2.1	0.5	2.9	1.6
CC(=O)Nc1cc(C(=O)N(C)Cc2ccccc2)ccc1S(=O)(=O)c1ccc(C)cc1	4203	10.9	-4.0	14.7	1.1	-22.1	5.0
CN(C)/C=C/C(=O)c1ncc(C(F)(F)F)cc1Cl	3216	3.8	0.7	6.6	3.4	-11.5	11.6
CN1C(=O)C2(C(C#N)=C(N)Oc3n[nH]c(-c4ccc(Cl)cc4)c32)c2ccccc21 (configuration not stated)	3230	74.7	-2.3	/	/	-2.6	97.6*

Filtered by structure: the entries above with a cyano group
SMILES	Autofluor counter	ugtP null kill	BJeLR viability	Mtb hypoxia inh	Mtb hypoxia inh growth	PrP UTR inh	RN4220 kill
CCC1=C(C(=O)OC)C(c2cc(OC)ccc2OC)C(C#N)=C(N)O1 (configuration not stated)	21452*	-4.0	-0.9	-5.0	-0.3	-11.4	0.1
CN1C(=O)C2(C(C#N)=C(N)Oc3n[nH]c(-c4ccc(Cl)cc4)c32)c2ccccc21 (configuration not stated)	3230	74.7	-2.3	/	/	-2.6	97.6*

New compounds follow:
SMILES	Autofluor counter	ugtP null kill	BJeLR viability	Mtb hypoxia inh	Mtb hypoxia inh growth	PrP UTR inh	RN4220 kill
CCOC(=O)c1[nH]c2c(c1-c1ccccc1)C(=O)CC(c1ccc(OC)c(OC)c1)C2 (configuration not stated)	6227	-12.3	-0.5	/	/	-9.1	-0.5
O=C(C1CC(c2ccc(F)cc2)=NO1)N1CCC2(CC1)OCCO2 (configuration not stated)	3161	5.3	4.6	-2.4	-2.4	-57.6	6.5
CC1=NN(C(=O)CCc2ccccc2)C(c2ccccc2)C1 (configuration not stated)	2124	-2.4	-6.5	4.3	1.5	-19.8	7.9
O=C(NC1CCCCCC1)C(=S)NCc1ccccc1	4304	1.8	-11.3	-4.9	3.9	-62.7	10.0
O=C(NCCCCl)C1CC(=O)N(CCc2ccc(F)cc2)C1 (configuration not stated)	3037	5.9	2.6	-2.6	-3.5	-8.3	5.2
Cc1ccc(C(=O)CCC(=O)Nc2ccccc2C)c(C)c1	2943	2.2	-0.1	-8.5	-6.9	-0.4	4.1
CC(CNC(=O)C1CCCCC1)NC(=O)C1CCCCC1 (configuration not stated)	7722	2.1	7.9	5.2	5.6	0.7	1.3
O=C(CCN1C(=O)C2C3C=CC(C3)C2C1=O)NCCc1ccccc1 (configuration not stated)	2808	-7.8	-2.0	/	/	-22.4	2.8
CC(CC(=O)N(C)c1c(N)n(Cc2ccccc2)c(=O)[nH]c1=O)c1ccccc1 (configuration not stated)	5363	12.5	-7.3	4.1	4.4	-38.9	1.3
CC1(OCON)CCCc2ccccc21 (configuration not stated)	2877	-3.0	1.6	7.2	6.7	-23.7	3.6
CN(C(=O)c1ccc(NC(=O)Cc2cccc(NC(=O)C3CCCN(C(=O)CCc4ccccc4)C3)c2)cc1)C1CC1 (configuration not stated)	3964	3.2	/	-6.1	-2.6	-23.3	1.2
O=C(COC(=O)CCN1C(=O)c2cccc([N+](=O)[O-])c2C1=O)NCc1ccccc1	4265	-1.2	/	6.0	-2.0	6.8	3.1
Cc1ccc(-c2c(C)sc3nc(CN4CCN(CC(=O)NC5CC5)CC4)[nH]c(=O)c23)cc1	3964	-3.9	/	-8.5	6.7	-13.4	3.1
CN1CC[C@@]23CCCCC2C1Cc1ccc(O)cc13 (some centres not stated)	/	4.1	/	5.3	-2.9	/	3.8
Cc1cc(C)c(NC(=O)Cn2nnc(C(=O)NCc3ccc4c(c3)OCO4)c2N)c(C)c1	5610	1.6	4.7	-2.1	-4.6	-29.8	2.6
Clc1cccc(N2CCN(CCCN3CCN(c4ccccc4)CC3)CC2)c1	3499	9.7	/	23.7	15.4	-3.4	3.6
O=C(Nc1cccc([N+](=O)[O-])c1)Nc1ccc2c(c1)CCC2	6226	-41.2	0.7	5.5	13.6	-39.5	-3.9
COc1ccccc1/C=C\C=Nn1c(C2CCCCC2)n[nH]c1=S	/	-9.4	/	12.7	15.8	/	-0.2
CC(C)(C)c1cc(NC(=O)COC(=O)c2nccnc2N)n(-c2ccccc2)n1	?	6.6	-6.5	4.5	1.4	-17.5	4.9
O=C(Nc1ccc(Cl)cc1)Nc1csc([N+](=O)[O-])c1	5603	-13.1	0.6	-12.3	4.0	/	0.9
CN(C)[C@@H](CO)c1nnc([C@H](CCC(=O)O)NC(=O)C2CCNCC2)o1	3762	/	-7.2	/	/	-30.6	/
COc1ccc(NC(=O)Nc2ccc(N3CCOCC3)c3nonc23)c(OC)c1	4633	3.8	-10.3	5.9	5.9	-19.8	8.7
